# From PubChem
# PAFAH1B2 FP inh = PAFAH1B2 enzyme inhibitors, primary screen, biochemical, fluorescence polarization, human | Platelet-activating factor acetylhydrolase IB subunit alpha2 (Homo sapiens), P68402 | recombinant PAFAH1B2, FP-rhodamine activity probe | inhibition, % at 3.39 µM | 340,000 tested, 1.2% active;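 active means inhibition above the mean of all tested compounds plus 3 SD, cut at about 24% in these data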;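 further: 0% = enzyme with DMSO and 100% = wells lacking PAFAH1B2; many of its hits are not listed in these tables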
# PAD4 inh = human PAD4 inhibitors, primary screen, biochemical, fluorescence polarization, 1536-well format; Protein-arginine deiminase type-4 (Homo sapiens), Q9UM07; recombinant PAD4, RCA probe fluorescence polarization; inhibition, % at 6.36 µM; 330,000 tested, 0.41% active; AID 485272, 2010;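 active means percent inhibition above a cutoff equal to the mean of all tested compounds plus 3 SD, cut at about 15% in these data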;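 further: 0% = PAD4 with RCA probe and DMSO and 100% = probe without PAD4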
# pPAFAH FP inh = pPAFAH enzyme inhibitors, primary screen, biochemical, fluorescence polarization, human. AID 463082, 2010. 330,000 tested, 1.5% active. recombinant pPAFAH, FP-rhodamine probe fluorescence polarization. inhibition, % at 3.39 µM. Platelet-activating factor acetylhydrolase (Homo sapiens), Q13093;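 active means inhibition above the mean inhibition across the screen plus 3 SD, cut at about 25% in these data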;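 further: inhibitors block binding of the rhodamine activity-based probe so polarization drops; 0% = enzyme with DMSO and 100% = wells lacking pPAFAH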
# GSTO1 counter = inhibitors of recombinant GSTO1, primary screen, counter-screen for RBBP9 inhibitor project, biochemical, fluorescence polarization. Glutathione S-transferase omega-1 (Homo sapiens), P78417. AID 1974, 2009. 300,000 tested, 1.1% active. activity-based probe fluorescence polarization. inhibition, % at 5.96 µM;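 active means inhibition above the campaign mean inhibition plus 3 SD, cut at about 35% in these data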;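 further: 0% = GSTO1-1 with DMSO and 100% = wells lacking GSTO1-1 enzyme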
# Target sequence (P78417 whole entry, looked up): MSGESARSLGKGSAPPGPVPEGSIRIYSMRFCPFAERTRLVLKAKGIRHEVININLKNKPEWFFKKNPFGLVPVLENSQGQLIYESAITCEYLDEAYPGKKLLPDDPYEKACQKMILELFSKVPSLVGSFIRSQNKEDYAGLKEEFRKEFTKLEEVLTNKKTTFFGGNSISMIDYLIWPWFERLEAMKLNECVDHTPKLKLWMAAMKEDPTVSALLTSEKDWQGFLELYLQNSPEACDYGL
# LYPLA2 counter = LYPLA2 inhibitors, primary screen, counter-screen for PME1 inhibitor project, biochemical, fluorescence polarization, FP-Rh probe ABPP; Acyl-protein thioesterase 2 (Homo sapiens), O95372; recombinant LYPLA2; inhibition, % at 5.9 µM; 320,000 tested, 0.38% active; AID 2177, 2009;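 active means inhibition above the screen-wide mean plus 3 SD, limit set per campaign, cut at about 26% in these data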;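 further: 0% = LYPLA2 with DMSO and 100% = wells lacking LYPLA2 enzyme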
# Target sequence (O95372 whole entry, looked up): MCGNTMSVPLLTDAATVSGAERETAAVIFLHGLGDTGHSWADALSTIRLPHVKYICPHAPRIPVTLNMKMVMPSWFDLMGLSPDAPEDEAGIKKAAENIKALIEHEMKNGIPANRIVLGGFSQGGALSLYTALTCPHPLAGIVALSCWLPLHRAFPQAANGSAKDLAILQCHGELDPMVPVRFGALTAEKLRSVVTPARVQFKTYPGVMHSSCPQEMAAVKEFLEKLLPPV
# LYPLA1 counter = LYPLA1 inhibitors, primary screen, counter-screen for PME1 inhibitor project, biochemical, fluorescence polarization, FP-Rh probe ABPP. recombinant LYPLA1. inhibition, % at 5.9 µM. 320,000 tested, 0.16% active;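 active means inhibition above the mean of all tested compounds plus 3 SD, set per campaign, cut at about 14% in these data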;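 further: inhibitors block serine hydrolase probe labeling of LYPLA1 so polarization falls; 0% = enzyme with DMSO and 100% = wells lacking LYPLA1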
# Target sequence (O75608 whole entry, looked up): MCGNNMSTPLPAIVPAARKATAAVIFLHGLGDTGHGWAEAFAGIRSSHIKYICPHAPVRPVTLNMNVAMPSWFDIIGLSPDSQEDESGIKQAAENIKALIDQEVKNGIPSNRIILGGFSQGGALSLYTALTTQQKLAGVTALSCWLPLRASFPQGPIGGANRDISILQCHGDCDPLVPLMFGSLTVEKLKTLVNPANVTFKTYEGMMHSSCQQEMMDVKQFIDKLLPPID
# PAFAH2 FP inh = PAFAH2 enzyme inhibitors, primary screen, biochemical, fluorescence polarization, human; Platelet-activating factor acetylhydrolase 2, cytoplasmic (Homo sapiens), Q99487; recombinant PAFAH2, FP-rhodamine activity probe; inhibition, % at 3.39 µM; 340,000 tested, 0.99% active; AID 492956, 2010;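 active means inhibition above the mean over all tested compounds plus 3 SD, cut at about 30% in these data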;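 further: inhibitors block probe labeling of enzyme so polarization drops; 0% = enzyme with DMSO and 100% = wells lacking PAFAH2 protein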
# PAFAH1B3 FP inh = PAFAH1B3 enzyme inhibitors, primary screen, biochemical, fluorescence polarization, human; Platelet-activating factor acetylhydrolase IB subunit alpha1 (Homo sapiens), Q15102; recombinant PAFAH1B3, FP-rhodamine probe; inhibition, % at 3.39 µM; 340,000 tested, 0.28% active; AID 492972, 2010;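 active means inhibition above the screen-wide average of all tested compounds plus 3 SD, cut at about 25% in these data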;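 further: 0% = enzyme with DMSO only and 100% = wells lacking PAFAH1B3 protein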
# Target sequence (Q15102 whole entry, looked up): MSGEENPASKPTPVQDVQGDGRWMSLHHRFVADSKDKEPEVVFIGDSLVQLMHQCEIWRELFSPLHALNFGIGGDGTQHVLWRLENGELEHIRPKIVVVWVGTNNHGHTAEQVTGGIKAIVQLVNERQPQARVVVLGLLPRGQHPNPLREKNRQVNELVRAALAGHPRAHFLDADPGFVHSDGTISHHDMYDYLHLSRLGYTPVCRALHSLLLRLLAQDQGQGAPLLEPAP
# Numbers without * were called inactive; / = not tested or not shown.
SMILES,PAFAH1B2 FP inh,PAD4 inh,pPAFAH FP inh,GSTO1 counter,LYPLA2 counter,LYPLA1 counter,PAFAH2 FP inh,PAFAH1B3 FP inh
COc1ccc(C2SCC(C(=O)O)N2C(C)=O)cc1 (stereo unspecified),1,-1,0,-1,-2,4,6,11
Cc1ccc(Cn2nnc3c(=O)[nH]c(C4CCN(S(=O)(=O)c5ccccc5)CC4)nc32)cc1,3,-1,1,15,2,-2,3,4
FC(F)(F)c1cnc(Oc2cccc3ccccc23)c(Cl)c1,1,0,4,2,2,3,0,-4
CCc1nc(Nc2ccc3c(c2)OCCO3)c2oc3ccccc3c2n1,4,-4,14,-1,4,4,-3,4
Cc1cccc(-n2c(SCC(N)=O)nnc2-c2ccco2)c1,6,-2,8,6,0,-1,-5,4
COc1ccc(OC)c(CC(=O)N2CCc3cc(OC)c(OC)cc3C2)c1,9,0,4,-1,-2,0,2,3
COc1ccc(S(=O)(=O)N2CCCCC2)cc1NC(=O)Cc1c[nH]c2ccccc12,3,-2,3,-3,0,-2,11,2
CCOC(=O)CN1C(=O)N(c2ccccc2OC)S(=O)(=O)c2ccccc21,4,0,3,1,1,3,2,-1
O=c1cc(-c2c(O)c3ccccc3n(Cc3ccccc3)c2=O)[nH][nH]1,19,-4,16,36*,-5,-4,18,6
CC(=O)NS(=O)(=O)c1cccnc1Nc1cccc(Cl)c1,6,-5,-1,-1,-4,-4,6,8
COc1ccc(C(=O)C(C)OC(=O)c2cccc(S(=O)(=O)Nc3cc(Cl)c(OC)cc3OC)c2)cc1 (stereo unspecified),-13,-2,3,-5,-1,-9,-17,-6
COc1ccc2c(CC(=O)N3CCc4cc(OC)c(OC)cc4C3)coc2c1,-2,0,8,5,-6,-8,4,2
COc1cc2c(cc1OC)CN(C(=O)/C=C/c1ccc(F)cc1)CC2,0,1,3,4,-1,0,-6,10
COc1cccc(OC)c1C(=O)Nc1c(C)n(C)n(-c2ccccc2)c1=O,4,-1,5,3,7,4,6,3
O=S(=O)(Nc1cc(Cl)ccc1N1CCOCC1)c1ccccc1Cl,7,-1,4,/,3,2,-4,16
CCOC(=O)Nc1ccc(=O)n(Cc2c(Cl)cccc2Cl)c1,5,-1,9,2,-4,1,3,5
COc1cccc(OC)c1C(=O)NC(=S)Nc1ccc2c(c1)Cc1ccccc1-2,-1,0,-1,0,-5,-5,-3,2
O=C(/C=C/NNC(=O)c1ccccc1O)c1ccccc1,0,0,9,13,2,5,6,10
CCOc1ccc(-n2c(SCc3nc(-c4cccs4)no3)nnc2-c2ccncc2)cc1,2,2,1,17,1,4,-3,-1
Cc1cc(C)n(-c2ccc(C(=O)N3CCc4ccccc43)cc2)n1,3,4,2,-1,4,-1,-3,6
CCOc1ccccc1NS(=O)(=O)c1ccc(-c2cnc(C3CC3)o2)cc1,0,-1,-2,-3,0,-1,4,4
O=[N+]([O-])c1cc(C(F)(F)F)ccc1NCCOc1ccccc1,1,-6,5,1,3,3,-1,4
COc1ccc(CCNC(=O)c2ccc3c(c2)N(Cc2ccc(F)cc2)CCS3)cc1OC,1,2,5,-3,0,-5,3,-3
Nc1nc(N)c(C=Nc2ccc(Br)cc2)c(Nc2ccc(Br)cc2)n1,5,2,-1,-9,2,-11,9,11
O=C1CC(c2cccc(Br)c2)C2=C(CCCC2=O)N1 (stereo unspecified),-1,-2,-5,3,-2,-2,6,-2
O=C(NC1CCSc2ccccc21)c1cc(S(=O)(=O)N2CCOCC2)ccc1Cl (stereo unspecified),2,-1,-3,2,1,1,6,9
COc1ccc(NS(=O)(=O)c2cc(Cl)ccc2Cl)cc1S(=O)(=O)N1CCCCC1,2,1,6,2,-1,0,9,7
Cc1ccc2c(c1)C(c1ccc(F)cc1)N(C(=O)c1cc3ccccc3oc1=O)CC(=O)N2 (stereo unspecified),0,0,-7,1,10,-3,10,-2
Cc1cc(C)cc(NS(=O)(=O)c2ccc(-c3cnc(C4CC4)o3)cc2)c1,-1,-1,7,-10,-6,-11,3,3
COc1cccc(/C=C2/Sc3ccc(C(=O)NCCN4CCCC4)cc3NC2=O)c1,-1,0,34*,-46,-16,-7,-8,3
COc1ccccc1C(CC(=O)Nc1ccc(C)c(C)c1)c1ccc(OC(C)C)cc1 (stereo unspecified),-4,-5,3,-10,-11,-6,-14,-8
O=C(O)c1cccc(S(=O)(=O)N2CCCC2)c1,6,4,-1,7,2,0,-5,1
O=[N+]([O-])c1ccc2c(c1)Nc1nc3ccccc3nc1N2,1,-10,4,5,-3,2,1,9
CC(C)[C@H](NC(=O)c1c(F)cccc1F)C(=O)Nc1cccc(Br)c1,-4,-2,6,2,4,2,-6,2
Cc1sc(NC(=S)NC(=O)c2ccc(C(C)(C)C)cc2)c(C#N)c1C,0,-5,0,4,2,0,-17,-3
CC(=O)N1CCc2cc(C(=O)CN3CCCN(Cc4ccc(F)cc4)C3)ccc21,/,-2,8,-1,-3,-2,/,/
CC(=O)Nc1ccc2nc(NC(=O)CCc3ccccc3)sc2c1,9,-3,0,1,0,-4,6,5
CCc1sc(C(=O)N2CCCN(C)CC2)cc1Br,-5,0,0,2,3,1,-5,-8
C[C@H](NC(=O)c1nc[nH]c1C(=O)N1CCN(c2ccccc2)CC1)C(=O)OC(C)(C)C,1,-1,-5,-1,-1,-1,0,8
O=C(COC(=O)c1cccnc1Cl)Nc1cc(S(=O)(=O)N2CCCCC2)ccc1Cl,1,1,3,12,3,1,28,5
Cn1c(=O)c(=O)n(C)c2cc(S(=O)(=O)N3CCCCC3)ccc21,5,5,3,2,-3,-3,-9,4
COc1ccc(CNC(=O)N2CCN(c3ccc(F)cc3)CC2)cc1,1,-4,4,9,1,0,3,7
O=C1CCN(Cc2nc(-c3ccc(Cl)cc3)no2)CCN1,-2,-5,3,11,3,4,-1,-3
COc1ccc(Br)cc1CN(C)CC(=O)Nc1c(Cl)ccc(C)c1Cl,4,-1,4,-3,-3,-4,-1,3
COc1ccc(-c2cccc(NS(=O)(=O)c3ccccc3[N+](=O)[O-])c2)nn1,8,-2,10,6,5,2,8,5

# pPAFAH FP inh: what is marked active above.
structure	PAFAH1B2 FP inh	PAD4 inh	pPAFAH FP inh	PAFAH2 FP inh	PAFAH1B3 FP inh
COc1cccc(/C=C2/Sc3ccc(C(=O)NCCN4CCCC4)cc3NC2=O)c1	-1	0	34*	-8	3

# Going on with the list.
SMILES,PAFAH1B2 FP inh,PAD4 inh,pPAFAH FP inh,GSTO1 counter,LYPLA2 counter,LYPLA1 counter,PAFAH2 FP inh,PAFAH1B3 FP inh
O=C1c2cccc3c2N(CCC3)C(=O)C1(F)c1ccccc1 (stereo unspecified),/,-1,4,2,0,-2,/,/
CC1=C(C(=O)Nc2cccnc2)C(c2cccnc2)n2ncnc2N1 (stereo unspecified),-4,2,8,-2,-2,0,1,0
Cc1cc(C)cc(NC(=O)Nc2cc(-c3ccccc3)nn2C)c1,-1,-2,4,-11,-11,-9,3,16
COc1ccc(C)cc1S(=O)(=O)Nc1cc2c3c(c1)CCC(=O)N3CCC2,6,-3,5,-6,-1,2,-3,0
CCN(CC)CCN1CNC(=S)N(c2ccccc2OC)C1,/,2,-2,-3,0,1,/,/
CC1(C)OC(=O)C(C(c2ccccc2)C(C#N)C(N)=O)=C(O)O1 (stereo unspecified),-1,4,-3,-7,-1,1,-5,0
CCCCc1nc(C(N)=O)c2[nH]c(=O)n(-c3ccc(OC)cc3OC)c2n1,4,-4,-2,0,-1,-4,-2,4
Cc1ccsc1-c1nc(C(N)=O)c2[nH]c(=O)n(-c3ccc(Cl)cc3)c2n1,-1,-5,7,9,1,-2,5,-6
FC(F)(F)c1ccc(Cl)c(-n2c(-c3cc(-c4ccco4)[nH]n3)n[nH]c2=S)c1,10,-7,16,-9,-5,-3,12,3
Cc1nnc(SCC(=O)N(C)CC(=O)Nc2ccc(F)cc2)n1Cc1ccccc1,3,2,9,-10,4,0,-2,2
O=C(NCCCn1ccnc1)c1cccc(Cl)c1,2,1,4,4,8,0,4,5
COC(=O)c1ccc(C2CC(=O)NC3=C2C(=O)CCC3)cc1 (stereo unspecified),0,2,1,0,-6,-2,-4,2
Cc1ccc2nc3c(nc2c1)-c1ccccc1C3=O,3,1,0,9,8,4,0,6
CC12CCC(=O)N1C(C(=O)Nc1cc(S(=O)(=O)N3CCCCCC3)ccc1OCC(F)(F)F)CS2 (stereo unspecified),4,-6,6,0,-2,2,11,9
CC(C)CC(=O)NC(NC(=S)Nc1sc2c(c1C#N)CCCC2)C(Cl)(Cl)Cl (stereo unspecified),6,-2,7,-48,-13,-16,-2,-2
Cc1ccc2c(c1)C(c1ccc(F)cc1)N(C(=O)c1ccccc1Br)CC(=O)N2 (stereo unspecified),2,3,3,7,-1,-1,-4,-1
N#CC1=C2N=C(N)c3ccccc3N2C2=C(C(=O)CCC2)C1c1ccccc1F (stereo unspecified),-1,1,5,1,1,-4,20,4
O=C(O)c1c2c(nc3ccccc13)CCCCC2,-2,-5,-4,-1,-6,-1,-9,2
CCOc1ccc(Cl)cc1S(=O)(=O)n1nnc2ccccc21,-1,3,5,9,0,-2,-4,-3
CCOc1ccc(NC(=O)Nc2cc(OCC(F)(F)F)cc(OCC(F)(F)F)c2)cc1,3,-1,8,-4,-10,-9,-10,-6
N#Cc1c(/N=C/c2cc(Br)cs2)sc2c1CCC2,5,-3,9,6,-2,0,4,2
O=C(NCCCN1CCOCC1)c1ccc(S(=O)(=O)Nc2ccccc2F)cc1,4,-2,-9,3,4,1,-3,9
Cc1nc2c(sc3nc(N4CCOCC4)c4c(c32)CC(C)(C)OC4)c(-c2ccc(Cl)cc2)c1C(=O)O,-3,-6,10,21,-8,-4,2,-2
Cc1cccc(Cn2c(=O)n(-c3ccc(CC(=O)NCc4ccco4)cc3)c(=O)c3sccc32)c1,0,-1,-7,1,-2,-6,-5,-6
O=C(COc1ncnc2c(Cl)cc(Cl)cc12)N1CCN(S(=O)(=O)c2ccccc2)CC1,-1,-3,-1,-2,0,1,-2,12

# One compound at a time (already shown). Values in the order: PAFAH1B2 FP inh	PAD4 inh	pPAFAH FP inh	GSTO1 counter	LYPLA2 counter	LYPLA1 counter	PAFAH2 FP inh	PAFAH1B3 FP inh
# Results for Cc1cccc(Cn2c(=O)n(-c3ccc(CC(=O)NCc4ccco4)cc3)c(=O)c3sccc32)c1 → 0	-1	-7	1	-2	-6	-5	-6
# Results for N#Cc1c(/N=C/c2cc(Br)cs2)sc2c1CCC2 → 5	-3	9	6	-2	0	4	2
# Results for Cc1ccc2c(c1)C(c1ccc(F)cc1)N(C(=O)c1ccccc1Br)CC(=O)N2 (stereo unspecified) → 2	3	3	7	-1	-1	-4	-1
# Results for O=C(COc1ncnc2c(Cl)cc(Cl)cc12)N1CCN(S(=O)(=O)c2ccccc2)CC1 → -1	-3	-1	-2	0	1	-2	12

# This is a subset, so the mix of outcomes need not match the whole.
